# Screens (PubChem BioAssay)
# MT1-MMP act inh = MT1-MMP (human) activation inhibition; HT1080 RFP-PRO-GFP cells, GFP/RFP ratio fluorescence, overnight; percent of plate control window, DMSO zero; AID 651647; GFP/RFP ratio change, % at 20 µM; 360,000 tested, 0.061% active; P50281;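 active = GFP/RFP ratio change of at least 30% with cell ATP level not reduced by more than half and red fluorescence within 50% of control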; also: strong numbers were not always called active
#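 Test system: HT1080 cells expressing an RFP-PRO-GFP fluorescent reporter construct / Compound dosing: single-point 20 µM compound, 1% DMSO / Schedule: cells overnight before dosing, compound overnight, 37 °C, 5% CO2 / Evaluation: GFP/RFP fluorescence ratio / Control set: DMSO and RFP-L50D-GFP cell wells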
# PABP FP inh = PABP-poly(A) binding inhibition; PABP-poly(A) RNA binding, fluorescence polarization; inhibition, % at 35 µM; AID 2014; 290,000 tested, 1% active; P11940;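 active = 50% or more with normal probe brightness, or confirmed in later tests; inconclusive = above 50% with abnormal brightness, or retests that disagree; inactive = below 50% or failed in later tests; about a fifth of its hits are not listed in these tables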;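 also: calls also rest on retests at 20 µM and on dose response follow-up; controls were probe without protein and protein plus probe with vehicle; some compounds called inactive have numbers as strong as hits; many hits fall short of the cut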
# Target sequence (P11940 whole entry, looked up): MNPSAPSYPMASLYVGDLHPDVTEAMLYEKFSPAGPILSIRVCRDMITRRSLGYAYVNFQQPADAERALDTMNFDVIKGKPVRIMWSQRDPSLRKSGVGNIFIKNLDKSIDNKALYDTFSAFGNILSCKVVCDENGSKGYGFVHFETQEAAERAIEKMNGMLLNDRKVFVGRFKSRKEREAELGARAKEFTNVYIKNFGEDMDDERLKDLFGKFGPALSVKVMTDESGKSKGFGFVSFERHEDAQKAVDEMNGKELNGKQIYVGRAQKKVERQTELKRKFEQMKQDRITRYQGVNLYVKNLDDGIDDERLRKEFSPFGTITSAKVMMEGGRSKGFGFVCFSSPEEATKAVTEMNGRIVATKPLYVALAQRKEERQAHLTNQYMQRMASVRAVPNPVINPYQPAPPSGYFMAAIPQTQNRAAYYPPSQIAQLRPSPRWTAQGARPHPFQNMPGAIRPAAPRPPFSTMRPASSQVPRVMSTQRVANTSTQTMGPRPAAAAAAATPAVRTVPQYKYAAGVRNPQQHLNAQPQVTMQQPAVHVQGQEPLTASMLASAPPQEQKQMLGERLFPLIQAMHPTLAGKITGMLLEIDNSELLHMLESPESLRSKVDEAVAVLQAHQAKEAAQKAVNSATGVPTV
# eIF4H FP inh = inhibitors of RNA binding by human eIF4H; eIF4H fluorescence polarization binding assay; inhibition, % at 35 µM; 290,000 tested, 0.94% active; Q15056; AID 2012;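 active = 50% or more with normal probe brightness, or confirmed in later tests; inconclusive = above 50% with abnormal brightness, or retests that disagree; inactive = below 50% or failed in later tests; about a fifth of its hits are not listed in these tables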;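 also: calls also rest on retests at 20 µM and on dose response follow-up; 0% = protein and probe with vehicle and 100% = probe without protein; strong numbers were not always called active; many hits fall short of the cut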
# Rce1 inh = inhibitors of yeast Ras-converting enzyme; Q03530; yeast membranes, quenched prenylated peptide cleavage fluorescence; calls only; 290,000 tested, 0.27% active; AID 2563;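 active = fall in fluorescence gain of 50% or more versus controls, with final raw signal at or below 3038400; inconclusive = same 50% fall but final raw signal above 3038400; inactive = fall in fluorescence gain under 50%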;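 also: plate controls were neutral control wells for no effect and wells lacking membranes for full effect; tested at 10 µM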
# CSC inhib = blocks cancer stem cells; inhibition, % at 7.5 µM; cancer stem cell-like cells viability, luminescence; AID 2717; 300,000 tested, 1.1% active;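 active = mean at 75% or more and at least half the replicates too; inconclusive = mean and replicates disagree; tested in HMLE shEcad cells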;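 also: 0% = median of negative and 100% = median of positive control wells; the first replicate is given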
# UUG fidelity = modulators of start codon recognition fidelity in yeast; S. cerevisiae UUG-firefly luciferase reporter, luminescence/redox ratio; activity score, % at 18.7 µM; 350,000 tested, 0.13% active;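 active = replicate mean at a twofold rise or more, about +100% in these data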;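 also: firefly luciferase made from a UUG start codon reports start codon fidelity; reporter light over untreated wells divided by growth signal over untreated wells; some hits fall short of that in this replicate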
# Env fusion inh = HIV envelope-mediated fusion inhibition; HeLa-JRFL Env/CEM21 cell fusion, luciferase; inhibition, % at 12.3 µM; 360,000 tested, 1.1% active; AID 651610;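 active = mean replicate inhibition score of at least 50 and every replicate individually at or above 50; inconclusive = only one of the two criteria met; inactive = mean below 50 and not all replicates reaching 50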;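 also: 0% = plate neutral controls and 100% = maraviroc near 300 nM; one replicate is shown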
# eIF4H FP inh retest = recorded beside eIF4H FP inh, whose call it bears; inhibition, %; compound at 20 µM; confirmation average;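 mean of two retest wells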
# PABP FP inh retest = also measured in PABP FP inh; calls as there; inhibition, %; compound at 20 µM; confirmation repeats;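 mean of two retest wells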
# MT1-MMP act inh RFP = recorded beside MT1-MMP act inh, whose call it bears; RFP signal change, %; measured here: RFP expression control read;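 0 = vehicle wells; hits needed this value within 50% of zero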
# * marks the source's active call; other numbers are inactive results; i = inactive; ? = inconclusive; / = no result given; + = active, no number. A portion of the library; rates above refer to the full screens.
SMILES,MT1-MMP act inh,MT1-MMP act inh RFP,PABP FP inh,eIF4H FP inh,Rce1 inh,CSC inhib,UUG fidelity,Env fusion inh,others
COc1ccc(CCN2C(=O)C3CC(C)=C(C)CC3C2=O)cc1OC (stereo unspecified),2,-4,-8,4,i,-3,-3,-1,
COc1ccc(S(=O)(=O)NCC(c2cccnc2)N2CCN(c3ccccc3)CC2)cc1C (stereo unspecified),0,-3,-2,-1,i,-7,5,/,
O=C(NC1(C(F)(F)F)N=C2SCCN2C1=O)C1CCCCC1 (stereo unspecified),-2,0,-9,-14,i,4,2,/,
CCOc1ccc(NC2c3ccccc3C(=O)N2c2ccc(Cl)cn2)cc1 (stereo unspecified),5,1,-4,2,i,2,-7,-52,
O=C(CCc1c[nH]c2ccccc12)NCCc1ccccc1,-3,-1,-1,2,i,8,-12,9,
C#CCn1c(=NC(=O)c2cccs2)sc2cccc(OCC)c21,6,-1,-6,0,i,-14,-9,-48,
Cc1cc(-c2n[nH]c(=S)n2-c2ccc(F)cc2)nn1C,4,4,6,6,i,-5,/,0,
CCOC(=O)c1c[nH]n2c(=O)cc(C)nc12,5,4,-8,-8,i,-10,-5,-7,
CCC(=O)Nc1cnc(NC(=O)c2cccc(F)c2)cc1C,4,3,-10,6,i,12,-35,/,
CCOc1ccc(N2C(=O)CC(N3CCC(O)(c4ccc(Br)cc4)CC3)C2=O)cc1 (stereo unspecified),2,-10,11,7,i,14,-6,/,
Cc1cccc(NC(=O)c2cccc3c2C(=O)c2ccccc2-3)c1,6,3,7,-12,i,-1,-16,-35,
CC(C(=O)Nc1nnc(C2CC2)s1)N1C(=O)C2CC=CCC2C1=O (stereo unspecified),-1,8,/,/,/,-14,-11,31,
CCc1ccc(NC(=O)CSc2nc3ccccc3nc2N2CCCCC2)cc1,-4,-6,-4,0,i,9,-20,45,
O=C(Nc1ccc(C(=O)O)cc1)/C(=C\c1cccc([N+](=O)[O-])c1)NC(=O)c1ccc(Br)o1,/,/,11,-12,i,-5,/,5,
COc1ccc(C2c3c(ncn(CCCO)c3=N)Oc3ccc4ccccc4c32)cc1 (stereo unspecified),3,-2,-11,-12,+,18,-10,9,
Cc1c(C(=O)O)sc2c1c(=O)n(Cc1ccccc1)c(=O)n2C,-5,-2,0,-12,i,0,-9,-11,
COc1ccc(CCC(=O)N(C)CC(=O)Nc2cc(C)ccc2C)cc1,0,7,-2,-2,i,22,/,7,
Cc1nnc2n(c1=O)N=C(c1ccc(Cl)cc1)CS2,5,3,-12,3,i,6,-23,/,
COc1ccc(-c2noc(CCC(=O)N3CCN(c4cccc(F)c4)CC3)n2)cc1,0,-6,/,/,/,/,-8,-1,
O=C(NC(Cc1c[nH]c2ccccc12)C(=O)O)c1ccc2c(c1)OCO2 (stereo unspecified),-3,-3,-4,3,i,-15,-13,-3,
C(=C\c1nc(N2CCCCCC2)c2ccccc2n1)/c1ccccc1,13,-21,3,-10,i,79*,6,17,
Brc1ccc(-c2c[n+]3c(n2-c2ccccc2)SCC3)cc1,0,-21,-3,2,i,2,7,-4,
CC(=O)[C@@]1(O)[C@H](C)CC2C3CC=C4CC(OP(=O)(O)O)CC[C@]4(C)C3CC[C@@]21C (stereo partly specified),1,5,74,2,i,15,-2,2,eIF4H FP inh retest=-3;PABP FP inh retest=18
COc1ccc(-c2cnnn2-c2ccc(NC(=O)c3ccc(S(=O)(=O)N4CCCCC4)cc3)cc2)cc1OC,17,2,10,5,i,/,-10,13,
Cc1ccccc1OCC(=O)Nc1ccc(C)c(S(=O)(=O)N2CCCCCC2)c1,4,-11,/,/,i,15,-15,11,

# Some of these compounds in order of count of non-hydrogen atoms, smallest number first.
SMILES,MT1-MMP act inh,MT1-MMP act inh RFP,PABP FP inh,eIF4H FP inh,Rce1 inh,CSC inhib,UUG fidelity,Env fusion inh,others
Cc1nnc2n(c1=O)N=C(c1ccc(Cl)cc1)CS2,5,3,-12,3,i,6,-23,/,
Cc1cc(-c2n[nH]c(=S)n2-c2ccc(F)cc2)nn1C,4,4,6,6,i,-5,/,0,
Brc1ccc(-c2c[n+]3c(n2-c2ccccc2)SCC3)cc1,0,-21,-3,2,i,2,7,-4,
O=C(NC1(C(F)(F)F)N=C2SCCN2C1=O)C1CCCCC1 (stereo unspecified),-2,0,-9,-14,i,4,2,/,
C#CCn1c(=NC(=O)c2cccs2)sc2cccc(OCC)c21,6,-1,-6,0,i,-14,-9,-48,
Cc1cccc(NC(=O)c2cccc3c2C(=O)c2ccccc2-3)c1,6,3,7,-12,i,-1,-16,-35,
O=C(NC(Cc1c[nH]c2ccccc12)C(=O)O)c1ccc2c(c1)OCO2 (stereo unspecified),-3,-3,-4,3,i,-15,-13,-3,
CCOc1ccc(NC2c3ccccc3C(=O)N2c2ccc(Cl)cn2)cc1 (stereo unspecified),5,1,-4,2,i,2,-7,-52,
CC(=O)[C@@]1(O)[C@H](C)CC2C3CC=C4CC(OP(=O)(O)O)CC[C@]4(C)C3CC[C@@]21C (stereo partly specified),1,5,74,2,i,15,-2,2,eIF4H FP inh retest=-3;PABP FP inh retest=18
COc1ccc(-c2noc(CCC(=O)N3CCN(c4cccc(F)c4)CC3)n2)cc1,0,-6,/,/,/,/,-8,-1,
COc1ccc(C2c3c(ncn(CCCO)c3=N)Oc3ccc4ccccc4c32)cc1 (stereo unspecified),3,-2,-11,-12,+,18,-10,9,
COc1ccc(-c2cnnn2-c2ccc(NC(=O)c3ccc(S(=O)(=O)N4CCCCC4)cc3)cc2)cc1OC,17,2,10,5,i,/,-10,13,

# The results go on:
SMILES,MT1-MMP act inh,MT1-MMP act inh RFP,PABP FP inh,eIF4H FP inh,Rce1 inh,CSC inhib,UUG fidelity,Env fusion inh,others
O=C(Nc1ccc(F)cc1)Nc1ccc2c(c1)CCC2,-1,-3,0,6,i,9,-6,i,
COc1cccc(C(=O)NOCc2ccc(C)cc2)c1OC,0,2,/,/,/,2,-29,/,
Cc1ccccc1C(=O)N1CCN=C1SCc1ccc([N+](=O)[O-])cc1,1,-9,8,3,i,4,-11,11,
COc1ccc(C2CC(=O)c3cnc(N4CCc5ccccc54)nc3C2)cc1OC (stereo unspecified),/,/,-7,-2,/,1,/,/,
COc1ccc(C(=O)COC(=O)c2ccco2)cc1,2,4,8,-1,i,/,-75,/,
O=C(O)C1CCCN(S(=O)(=O)c2cccs2)C1 (stereo unspecified),0,-1,-2,-6,i,10,-16,/,
NS(=O)(=O)c1cccc(NC(=O)COC(=O)CCC2CCCC2)c1,0,-3,/,/,/,-10,-32,-9,
CCN(CC)C(=O)Oc1cc2c(-c3cc4cccc(OC)c4o3)cc(=O)oc2cc1C,-7,-8,2,-8,i,15,-20,7,
COc1ccccc1C(=O)C1CCCN(C(=O)CCn2cnnn2)C1 (stereo unspecified),-2,-1,3,2,i,-6,-1,-13,
O=C(NP(=O)(N1CCOCC1)N1CCOCC1)C1=C(N2CCOCC2)/C(=C\c2ccccc2)CC1,-6,1,4,-7,i,3,-8,1,
CCCOC(=O)C(C)Sc1n[nH]c(=O)[nH]c1=O (stereo unspecified),-2,6,-10,2,i,-7,/,4,
CC1CC(C)(C)CC2(C1)NC(=O)N(CC(=O)Nc1nccs1)C2=O (stereo unspecified),0,2,/,/,i,-10,/,-16,
CCOC(=O)C1CCCN(CC(O)COc2ccc(OC)cc2C(C)(C)C)C1 (stereo unspecified),-2,-1,7,0,i,-4,-2,-4,
CC(=O)NC1=NN(C(C)=O)C(c2cccc([N+](=O)[O-])c2)S1 (stereo unspecified),-1,1,6,-6,/,-11,/,-6,
COCCN(C(=O)COC(=O)c1cc2c(s1)CCCC2)c1c(N)n(Cc2ccccc2)c(=O)[nH]c1=O,-7,-1,/,/,i,-14,5,-1,
FC(F)(F)c1ccccc1/C=N/N1CCN(Cc2ccccc2)CC1,-3,1,11,-6,i,-5,-9,-13,
O=C1c2ccccc2C(=O)N1CCC(c1ccccc1)c1ccco1 (stereo unspecified),0,0,-16,-1,i,1,-5,-84,
COc1ccccc1C(=O)NCCSCc1c(F)cccc1Cl,2,-4,1,-9,i,-2,-21,17,
NC(=O)C1CCN(C(=O)c2ccc(CS(=O)(=O)c3c(Cl)cccc3Cl)o2)CC1,-2,5,-7,-12,i,-15,-8,2,
CC(C)n1c2ccccc2c2nnc(SCC(=O)OCN3C(=O)c4ccccc4C3=O)nc21,1,6,10,-4,i,-5,-9,15,
COC(=O)C1(C(F)(F)F)N=C(N(C)C)OC(N(C)C)=N1,-3,1,-15,-2,i,5,-15,/,
CC1CCCC(C)N1C(=O)CSc1nc(N)c(-c2ccccc2)c(=O)[nH]1 (stereo unspecified),-2,-2,-2,7,i,-9,-6,/,
Cc1cccc(-c2cc(N3CCCN(C)CC3)n3nccc3n2)c1,11,9,/,/,/,/,-10,-4,
Cc1ccc(O)c(N=CC2=C(O)c3ccccc3C2=O)c1,-33,-12,6,10,i,39,-20,-85,
Cc1ccc(/C(N)=N/OC(=O)/C=C/c2ccccc2)cc1,1,1,-1,-2,i,/,-16,/,

# Continued.
SMILES,MT1-MMP act inh,MT1-MMP act inh RFP,PABP FP inh,eIF4H FP inh,Rce1 inh,CSC inhib,UUG fidelity,Env fusion inh,others
Cc1ccccc1CSCCC(=O)NCCc1ccccc1,-1,-1,-7,-6,i,-13,1,5,
O=[N+]([O-])c1c(NCCO)cc(Sc2nc3ccccc3s2)c2nonc12,21,8,27,9,i,79*,4,/,
CNC(=O)Nc1cc(C)nn1C,1,4,-15,7,i,/,/,-10,
CC1CCN(C(=O)c2ccc(NC(=O)CC3SC(N4CCCC4)=NC3=O)cc2)CC1 (stereo unspecified),3,4,/,/,i,3,13,/,
O=C1CCCCCCCCCC/C(=N\O)CCCO1,0,-5,/,/,i,-7,-6,22,
CC1=C(C(=O)OCC2CCCO2)C(c2ccccc2)C2=C(CC(C)(C)CC2=O)N1 (stereo unspecified),-1,-3,46,-1,i,-8,-15,-6,
CCn1c(=O)cc(OCC(=O)NCCCN2CCN(c3cccc(Cl)c3)CC2)c2ccccc21,9,-1,-11,-1,i,8,-7,6,
CCCCNC(=O)C1=C(N)C(C(=O)Nc2ccc(C)c(S(=O)(=O)N3CCCCC3)c2)SC1=Nc1ccc(C)cc1C (stereo unspecified),-9,-2,-15,6,i,33,-9,-298,
O=C(COc1ccc(-n2cnnn2)cc1)Nc1ccc(F)c(F)c1,3,-4,/,/,/,3,-14,74*,
Cn1c(=O)[nH]c(=O)c2c1nc(SCC(=O)O)n2CCOc1ccccc1,-1,5,-6,-14,i,-7,-4,14,
N#C/C(=C/c1ccc(-c2cc(C(=O)O)cc(C(=O)O)c2)o1)c1nc2ccccc2s1,/,/,-8,?,i,2,/,/,
C=CCn1c(SCc2cc(C(=O)OC)c(C)o2)nnc1-c1ccncc1,3,6,24,18,i,-9,-12,-26,
CCc1ccc(NC(=O)c2cc(C)no2)cc1,1,0,6,-4,i,-4,-31,-10,
CCn1c(CC(=O)Nc2ccccc2F)nnc1SCC(=O)NC1=NCCS1,-2,6,/,/,/,/,-11,21,
CCCC(=O)Nc1c2c(nn1-c1ccc(F)cc1)CS(=O)(=O)C2,1,2,2,1,i,-25,-2,-8,
CC(C)NC(=O)c1ccc(CSCc2ccccc2Cl)o1,-3,-17,1,-7,i,1,-20,11,
COCCNC(=O)CSc1ccc(C)cc1,-4,3,-3,-1,i,-8,-11,-19,
